Screening data: PubChem, several laboratories
YopH PTP inh: YopH tyrosine phosphatase inhibitors, primary screen, biochemical, fluorescence Ex485/Em525 | 0.16% of 140,000 active | inhibition, %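 (about 10 µM by stock and volumes)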 | AID 898, 2007;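 active = inhibition of 50% or more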;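 also: controls were vehicle for no effect and minimum signal wells for full effect; inactives centre near -20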
Arbovirus anti: antivirals against arbovirus infection, primary screen, cell-based, full library, 10K replicate subset; arbovirus infection cell-based antiviral screen; inhibition, % at 10 µM; 0.37% of 200,000 active;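 active = inhibition from about 30%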;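 also: bluetongue infection of BSR cells; cell survival read as ATP light after 72 h; 0% = infected wells without compound and 100% = uninfected wells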
Mtb bLac sens: beta-lactam sensitization of Mtb H37Rv, H37Rv; M. tuberculosis H37Rv growth with meropenem, percent inhibition; hits of this screen are not shown here; inhibition, % at 25 µM; 0.27% of 330,000 active; AID 434955, 2010;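 active = about 74% or more and at least 40 points above the plate without the antibiotic, then above 30% in a dose series; inconclusive = first-round hits that could not be retested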;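 also: growth measured after seven days incubation then overnight dye step; 0% = bacteria only wells and 100% = bacteria with antibiotic; twin plates without the antibiotic show which effects depend on it; some results filed as inactive read as strong as hits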
Mtb growth: M. tuberculosis H37Rv growth inhibitors, H37Rv strain (AID 1626) | 0.95% of 220,000 active | M. tuberculosis H37Rv growth inhibition; higher % means a stronger effect | inhibition, % at 10 µM; hits with a dose series show IC50 in µM;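 active = confirmed in a dose series; inconclusive = inhibition above 80% but not taken into the dose series; inactive = below 80% or under 30% at every dose of the series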;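 also: bacteria incubated seven days before Alamar blue readout; 0% = bacteria only wells and 100% = bacteria with antibiotic wells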
RecA intein inh: Mtb RecA intein splicing inhibitors, primary screen, biochemical, fluorescence, HTS; AID 2221, 2009; Protein RecA (Mycobacterium tuberculosis (strain ATCC 25618 / H37Rv)), P9WHJ3; cell-free RecA intein splicing; 0.75% of 290,000 active; inhibition, %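 (about 9 µM by stock and volumes)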; in the data active = inhibition above about 30%; inconclusive = no clear call, values can overlap the other calls;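 also: 0% = vehicle wells and 100% = reference inhibitor control wells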
Target sequence (P9WHJ3 whole entry, looked up): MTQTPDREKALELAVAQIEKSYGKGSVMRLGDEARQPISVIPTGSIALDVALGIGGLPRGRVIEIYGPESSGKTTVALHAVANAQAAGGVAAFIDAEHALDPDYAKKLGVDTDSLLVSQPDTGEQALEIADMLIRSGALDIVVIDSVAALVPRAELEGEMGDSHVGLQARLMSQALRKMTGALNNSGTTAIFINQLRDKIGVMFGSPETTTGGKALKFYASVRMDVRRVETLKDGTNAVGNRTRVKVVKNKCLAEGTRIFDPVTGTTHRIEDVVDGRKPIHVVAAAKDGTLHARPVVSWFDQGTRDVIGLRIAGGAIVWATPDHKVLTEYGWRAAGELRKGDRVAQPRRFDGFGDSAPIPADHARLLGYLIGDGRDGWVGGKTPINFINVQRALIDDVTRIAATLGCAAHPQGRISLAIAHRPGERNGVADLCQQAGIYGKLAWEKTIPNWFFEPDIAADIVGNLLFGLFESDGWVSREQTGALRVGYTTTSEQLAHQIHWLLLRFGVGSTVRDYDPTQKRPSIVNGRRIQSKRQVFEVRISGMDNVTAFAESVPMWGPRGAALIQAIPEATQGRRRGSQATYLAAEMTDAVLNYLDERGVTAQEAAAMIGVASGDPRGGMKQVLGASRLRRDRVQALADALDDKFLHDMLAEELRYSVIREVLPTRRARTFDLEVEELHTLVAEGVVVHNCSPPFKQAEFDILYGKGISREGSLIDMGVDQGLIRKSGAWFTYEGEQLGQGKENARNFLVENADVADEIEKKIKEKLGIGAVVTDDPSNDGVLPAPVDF
Arbovirus anti repeat: second read-out of Arbovirus anti, no call of its own (marks repeat the call); inhibition, %; measured here: 10K subset replicate screen; many hits read low in the repeat;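 first of two repeat runs on a subset; 0% = infected and 100% = uninfected wells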
Starred values were filed as active, the others as inactive; u = inconclusive; x = not tested or not shown. Some of the compounds tested, so the mix of outcomes need not match the whole.

SMILES	YopH PTP inh	Arbovirus anti	Mtb bLac sens	Mtb growth	RecA intein inh	others
Cc1cccc(N(C(=O)Cn2nnc3ccccc32)C(C(=O)NC(C)(C)C)c2ccsc2)c1C (configuration not stated)	-37	-6	-3	1%	0.8
Cc1ccc2[nH]cc(S(=O)(=O)c3ccc(F)cc3)c(=O)c2c1	x	x	-15	x	0.2
Cc1cc(NC(=O)/C=C/c2ccc(Br)cc2)no1	-23	-21	0	1%	6.4
Cc1ccc2c(c1)cc(CN(Cc1ccc3c(c1)OCO3)C(=O)c1cnccn1)c1nnnn12	4	2	-5	2%	-0.3
Cc1ccc(NC(=O)CSc2nc(C)c(C)c(C)n2)c([N+](=O)[O-])c1	-41	4	2	2%	1.7
COc1ccc(N2CCN(C(=O)c3cccc(N4C(=O)C5C6C=CC(C6)C5C4=O)c3)CC2)cc1 (configuration not stated)	x	x	-3	x	-1.9
CCOC(=O)CCCCC(=O)c1[nH]c(=O)[nH]c1Cn1ccnc1	-35	-2	-4	-26%	5.9
CCOC(=O)C1CN(S(=O)(=O)c2ccc(C)cc2)c2ccccc2O1 (configuration not stated)	x	x	2	x	-1.2
CCOP(=O)(OCC)C(Nc1cccc(C(F)(F)F)c1)c1ccc(F)cc1 (configuration not stated)	-28	1	-5	1%	2.2
Cc1nc2ccccc2n1CCCOc1ccccc1	-28	2	-5	9%	-2.3
COc1cccc(OCC(O)CN2CCN(CCN3C(=O)c4cccc5cccc(c45)C3=O)CC2)c1 (configuration not stated)	x	-20	40	12%	-0.6
O=C(Cn1nc(Cc2cccnc2)c2ccccc2c1=O)NCC1CCCO1 (configuration not stated)	-18	8	0	-7%	0.3	Arbovirus anti repeat=5
O=C(CC1C(=O)NCCN1CC1CCCCC1)NCCc1ccc(F)cc1 (configuration not stated)	x	-1	-10	-4%	4.2
CCn1c(SCC(=O)O)nnc1C1CCCCC1	-20	4	3	-5%	-14
O=S(=O)(Cc1ccccc1)N(O)c1ccccc1	x	x	-12	x	-6.3
Cc1ccc(S(=O)(=O)Cc2ccc(C(=O)N3CCCC3)o2)cc1	-48	4	1	-12%	x	Arbovirus anti repeat=2
CCOC(=O)c1ccc(CNC(=O)c2n[nH]c(=O)c3ccccc23)o1	-46	-1	4	2%	0.2
O=C(CO/N=C/c1ccccc1O)NNC(=O)c1ccccc1Cl	-32	4	80	0%	0.0
C[C@]12CC[C@H]3[C@@H](CCC4=CC(=O)CC[C@@]43O)[C@@H]1CCC2=O	x	x	u	x	1.2
CC(C)OC(=O)Nc1ccc(Oc2c(F)c(F)c(F)c(F)c2F)cc1	-35	-2	-7	10%	-0.1
Cc1noc(C)c1CSc1nnc2cc(C)c3ccccc3n12	x	x	-6	-5%	-0.4
Cc1ccc(NC(=O)C(C)OC(=O)c2ccc(NC(=O)CC#N)cc2)cc1S(=O)(=O)N1CCOCC1 (configuration not stated)	x	x	-3	x	-1.2
Cc1ccccc1C(=O)NC1CCN(CC(=O)NCc2ccccc2)CC1	x	x	5	x	-2.6
Cc1ccc(NC(=O)Cc2nnc(SCC(=O)c3ccc(Br)cc3)n2C)cc1	-2	9	-11	-1%	-3.1

Next part; it opens with the 3 that closed the last part.
SMILES	YopH PTP inh	Arbovirus anti	Mtb bLac sens	Mtb growth	RecA intein inh	others
Cc1ccc(NC(=O)C(C)OC(=O)c2ccc(NC(=O)CC#N)cc2)cc1S(=O)(=O)N1CCOCC1 (configuration not stated)	x	x	-3	x	-1.2
Cc1ccccc1C(=O)NC1CCN(CC(=O)NCc2ccccc2)CC1	x	x	5	x	-2.6
Cc1ccc(NC(=O)Cc2nnc(SCC(=O)c3ccc(Br)cc3)n2C)cc1	-2	9	-11	-1%	-3.1
NC1=NC(=O)C(Cc2cccc(Cl)c2Cl)S1 (configuration not stated)	-14	10	3	5%	-4.6
COc1cccc(C(=O)NC2=NCCS2)c1	-20	1	-3	-8%	-3.0
Cn1cc(Br)c(C(=O)NC(=S)Nc2ccc(S(N)(=O)=O)cc2)n1	x	0	-4	-5%	-1.1
O=C(Nc1c(Cl)cccc1Cl)c1cc(-c2ccco2)on1	x	x	95	x	0.8
CSc1ccc(NC(=O)Nc2cccn(Cc3ccccc3F)c2=O)cc1	x	9	5	-4%	1.7
CC(NC(=O)CCCCCCN1C(=O)c2ccccc2C1=O)c1ccc2c(c1)CCCC2 (configuration not stated)	-30	0	-4	7%	-2.1
O=c1[nH]c(=O)n(CCc2ccc(F)cc2)c(O)c1C=NCCCn1ccnc1	-30	3	4	-7%	-1.8
O=c1[nH]c(C2CCN(S(=O)(=O)c3ccc(C(F)(F)F)cc3)CC2)nc2c1nnn2Cc1ccccc1	x	x	6	x	2.4
CCCc1nc(N2CCCC2)c(C#N)c2c1CCCC2	-21	12	1	6%	0.0
CCOC(=O)C1CCCN(C(=O)c2c(-c3ccccc3Cl)noc2C)C1 (configuration not stated)	5	6	-6	-8%	0.6
Cc1ccc(S(=O)(=O)Nc2nccs2)cc1[N+](=O)[O-]	x	-5	-10	-8%	-2.2
COc1cc(-c2nc3ccccn3c2/N=C/c2ccccc2)ccc1O	-39	-9	15	-9%	-76

Of the compounds above, 2 have two or more sulfur atoms:
SMILES	YopH PTP inh	Arbovirus anti	Mtb bLac sens	Mtb growth	RecA intein inh	others
Cn1cc(Br)c(C(=O)NC(=S)Nc2ccc(S(N)(=O)=O)cc2)n1	x	0	-4	-5%	-1.1
Cc1ccc(S(=O)(=O)Nc2nccs2)cc1[N+](=O)[O-]	x	-5	-10	-8%	-2.2

Back to the main list; the 2 compounds before the break are reprinted first.
SMILES	YopH PTP inh	Arbovirus anti	Mtb bLac sens	Mtb growth	RecA intein inh	others
Cc1ccc(S(=O)(=O)Nc2nccs2)cc1[N+](=O)[O-]	x	-5	-10	-8%	-2.2
COc1cc(-c2nc3ccccn3c2/N=C/c2ccccc2)ccc1O	-39	-9	15	-9%	-76
CN(Cc1ccccc1)C(=O)COc1cccnc1[N+](=O)[O-]	x	x	4	x	-2.4
CCN(CC)S(=O)(=O)c1cc(C(=O)OCC(=O)Nc2cccc(S(=O)(=O)N(C)C)c2)ccc1F	x	5	-7	-3%	5.7
Cc1cccc(NS(=O)(=O)c2cccc(C(=O)NCCCN3CCOCC3)c2)c1	x	x	-9	x	0.5
CCc1ccc(C2CC(c3ccccc3C)n3nc(N)nc3N2)cc1 (configuration not stated)	-13	7	-5	2%	0.1	Arbovirus anti repeat=2
N#CC[n+]1cc(-c2ccc(Cl)cc2)n2c1CCC2	-43	4	-10	6%	-0.4
CCCCNC(=O)OC1CCS(=O)(=O)C1 (configuration not stated)	-3	8	-15	1%	1.1
O=C(Nc1ccc(Cl)cc1)c1ccc(CN2CCc3ccccc3C2)cc1	x	x	0	x	0.3
Cn1cc(SCC(=O)N2CCN(c3ccccc3)CC2)c2ccccc21	-55	9	-1	x	1.3	Arbovirus anti repeat=6
O=C(/C=C\c1cn(-c2ccccc2)nc1-c1cccs1)N1CCOCC1	12	-22	7	10%	1.8
COc1ccc(-n2nc([N+](=O)[O-])c(=NCCc3ccc(C)cc3)n2O)cc1	x	-24	32	-6%	-0.3
CC1=C(C(=O)OC(C)C)[C@]2(C(=O)N(CC(N)=O)c3ccccc32)C(C#N)=C(N)O1	-30	-3	-11	0%	2.8
CNC(=O)[C@@]1(Cc2ccccc2)C=C[C@@H](C)N1C(=O)OC	x	x	2	-9%	-0.5
COc1ccc2c(c1)nc(NCCO)n2C	-27	4	48	-11%	-3.2
Cn1c(=O)c2cc(S(=O)(=O)NC(C(=O)N3CCCCCC3)c3ccccc3)ccc2n(C)c1=O (configuration not stated)	-39	2	3	8%	x	Arbovirus anti repeat=1
COCCn1c(SCC(=O)N2CCCC2=O)nc2sc(C)c(C)c2c1=O	x	x	-3	x	0.4
CCn1c(SCCOc2ccc(OC)cc2)nnc1C(CO)NC(=O)c1ccc(OC)cc1 (configuration not stated)	-21	5	-4	8%	-3.9
Cc1ccc(N(C(=O)c2nsc(Cl)c2Cl)C(C(=O)NC2CCCC2)c2ccc(O)cc2)cc1C (configuration not stated)	-12	-18	54	10%	2.1
O=c1ccc2c(-c3ccccc3)c3ccc(O)cc3oc-2c1	x	x	-2	x	-93
O=S(=O)(c1ccc(Cl)cc1)N1CCC(N2CCOCC2)CC1	-14	0	-18	-2%	-2.1
CC(NC(=O)c1ccc(NC(=O)CC2SC(N3CCCC3)=NC2=O)cc1)c1ccc(S(N)(=O)=O)cc1 (configuration not stated)	x	x	-7	x	-1.5
COC(=O)CCN(C1CCCCC1)S(=O)(=O)c1ccc(S(=O)(=O)N2CCCCC2)cc1	-5	0	3	-4%	-1.3
COc1cccc(CC(C(=O)Nc2cc(C)ccc2C)c2nn[nH]n2)c1OC (configuration not stated)	-41	3	2	-3%	0.2
Cc1noc(C)c1NC(=O)N1CCN(Cc2ccccc2)CC1	x	x	-1	5%	7.8
CN(Cc1nc(-c2cccs2)no1)CC(O)c1ccccc1 (configuration not stated)	x	6	-3	-4%	0.4
O=C1c2ccccc2C(=O)N1CCCCn1c(=O)oc2ccccc21	-47	4	-14	2%	-3.3
CC1=C(Sc2ccccn2)C(=O)NC(C)(C)C1	-15	6	-1	5%	0.2
Cc1ccc(C(=O)COC(=O)CCN2C(=O)C3C4CCC(C4)C3C2=O)cc1[N+](=O)[O-] (configuration not stated)	x	x	-11	x	3.1
O=CNCC(=O)NC1CCCCCC1	-35	-2	-2	-1%	-0.8
COc1ccc(C2=Nn3c(nnc3-c3cc(C)[nH]n3)SC2)cc1	x	x	-3	-2%	1.3
Cc1cccc(NS(=O)(=O)c2ccc(C3CCCCC3)cc2)c1	-12	-33	12	2%	10
COC(=O)C1=C(c2cccc(OC)c2OC)C[C@@H]2CC[C@H]1N2C(=O)NC1CCCCC1	x	x	-3	4%	-2.4
Cc1c(C(=O)N2CCCCC2)c(S(=O)(=O)NCCc2ccccc2)c(C)n1C	x	x	-1	x	1.8
CC1CCCCC1NC(=O)/C(C#N)=C/c1ccc(F)c(F)c1 (configuration not stated)	-23	7	1	3%	5.5
S=c1sc2ccccc2n1CCc1ccncc1	x	x	19	x	-0.3
Cc1c(CCO)c(=O)[nH]n1S(=O)(=O)c1ccc([N+](=O)[O-])cc1	x	x	-11	x	-4.8
CCOC(=O)c1c(C)nsc1NC(=O)c1ccco1	x	x	1	x	-0.7
O=C(O)C(C/C(=N/O)c1ccc(Br)cc1)P(=O)(c1ccccc1)c1ccccc1 (configuration not stated)	x	x	-1	-6%	1.1
CC12C=CC3(O1)C(C(=O)N(c1ccccc1)C3C(=O)NC1CCCC1)C2C(N)=O (configuration not stated)	13	-5	1	-12%	2.5
CC(=C/c1ccc(C(C)C)cc1)/C=N/NC(=O)Cn1nc(C)cc1C	-25	-10	80	15%	0.8
COc1ccc(NC(=O)CCN2CCN(Cc3ccccc3)CC2)c(OC)c1	x	x	-2	x	-1.2
CCN(CC)S(=O)(=O)c1ccc(Cl)c(C(=O)NC2CCCC2)c1	-30	7	-5	-2%	-1.6	Arbovirus anti repeat=-3
O=C(N[C@@H]1CCC(=O)N(CC[C@H](Sc2ccccc2)c2ccccc2)CC1)OCc1ccccc1	x	x	0	x	8.5
COc1ccc(-c2nc3c(-c4ccc(F)cc4)cnn3cc2C)cc1F	x	1	-1	-1%	-3.6
O=C(C1CCN(Cc2ccc(OCc3ccccc3)cc2)CC1)N1CCCC1	-21	-6	-4	-11%	-1.5
O=C(CNC(=O)c1ccc(Br)o1)NCc1cccc(Cl)c1	x	x	0	x	-0.4
COC(=O)c1ccc(N(C(=O)c2ccco2)C(C(=O)NC2CCCC2)c2ccco2)cc1 (configuration not stated)	-21	-2	-7	-6%	2.3
COc1ccccc1NC(=O)Cn1cnc2c(cnn2-c2ccc(C)c(C)c2)c1=O	-30	-4	-1	x	-0.8
O=C(NNC(=S)Nc1ccccc1)c1cccs1	-28	4	8	-4%	5.1
Fc1cccc(NC(=S)N2CCCCC2)c1	-44	5	-2	-9%	-0.2
CCSc1nc2ccccc2n1CC(=O)N1CCCCC1	-39	0	-8	-2%	-2.0
CC1CCCC(C)N1/N=C/c1ccccc1C(=O)O (configuration not stated)	x	-1	-1	3%	0.6
CSc1ccc(CN(C)CC(=O)Nc2cccc(Br)c2)cc1	-23	15	-3	1%	16
Cc1c(N(CC(=O)O)S(=O)(=O)c2ccccc2)c(=O)n(-c2ccccc2)n1C	x	17	1	2%	-1.7
CN1CCN(c2ccc(CNS(=O)(=O)c3ccsc3)cc2)CC1	x	x	-2	-1%	1.3
CCn1cc(C(=O)OCC(=O)N2C(C)CCCC2C)c(=O)c2ccc(C)nc21 (configuration not stated)	x	-1	0	2%	13
O=C(Nn1c(C2CCCCC2)nc2ccccc2c1=O)c1ccc([N+](=O)[O-])cc1	-9	15	3	1%	1.9
